Bioassay records as filed in PubChem.
A1 apoptosis 2 – A1 inhibitors via caspase activation, primary screen, cell-based, luminescence, HTS, two replicates; MEF A1-2A-BIM cells, caspase-Glo luminescence, 3 h; percent of clofoctol response, DMSO zero; caspase activation, % (no concentration beside the values); 24,000 tested, under 10 active; AID 2465, 2010; in the data active means caspase activation above about 5.9%;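 further: wells of about 30 µL received 50 nL stock; the first replicate is given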
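Material: A1-2A-BIM-expressing MEF cells. Buffer or medium: RPMI-1640 plus 10% FBS. Incubation: cells settled overnight, compound exposure 3 h at 37 °C, 5% CO2. Signal: Caspase-Glo 3/7 luminescence, 1 h at room temperature.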
Starred values were filed as active, the others as inactive. Only part of the results is shown (hit frequency here may not be typical).

SMILES | A1 apoptosis 2
C[C@@H]1CN([C@H](C)CO)C(=O)c2cc(NS(=O)(=O)c3cccs3)ccc2O[C@@H]1CN(C)S(C)(=O)=O | 0.2
C[C@@H]1CN([C@H](C)CO)C(=O)Cc2cc(NC(=O)c3ccncc3)ccc2O[C@@H]1CN(C)Cc1ccc(C(=O)Nc2ccccc2N)cc1 | 0.2
COc1ccc(NC(=O)N(C)C[C@H]2Oc3ccc(N(C)C)cc3CC(=O)N([C@H](C)CO)C[C@@H]2C)cc1 | 0.4
Cc1noc(C)c1NC(=O)N(C)C[C@@H]1Oc2ccc(NS(=O)(=O)c3ccccc3)cc2C(=O)N([C@@H](C)CO)C[C@@H]1C | 0.4
CNC[C@@H]1Oc2c(NC(=O)c3ccc(-c4nccs4)cc3)cccc2C(=O)N([C@H](C)CO)C[C@H]1C | 0.0
C[C@H](CO)N1C[C@H](C)[C@H](CN(C)Cc2ccccc2)Oc2ccc(NC(=O)CCCCCC(=O)Nc3ccccc3N)cc2C1=O | -0.1
COc1ccc(COCC23N=C4SCCCN4[C@H](c4ccccc4O2)[C@H]3CO[Si](C)(C)C(C)(C)C)cc1 | 0.1
CC(C)=CCC[C@@H](C)C/C=N/NC(=O)c1ccc(C(=O)NO)cc1 | 0.5
CNC[C@@H]1OCCCC[C@@H](C)Oc2ccc(NC(=O)CCCN(C)C)cc2C(=O)N([C@@H](C)CO)C[C@H]1C | -0.5
CNC[C@@H]1Oc2ccc(NC(=O)Nc3ccc(F)cc3)cc2CC(=O)N([C@H](C)CO)C[C@@H]1C | 1.7
COc1ccc(S(=O)(=O)N(C)C[C@@H]2Oc3c(NS(=O)(=O)c4ccc(C)cc4)cccc3C(=O)N([C@@H](C)CO)C[C@H]2C)cc1 | 0.1
C[C@H]1CN([C@@H](C)CO)C(=O)c2cccc(NS(=O)(=O)c3cccs3)c2O[C@H]1CN(C)Cc1ccc(-c2ccccc2)cc1 | -0.1
C[C@@H]1CCCCO[C@H](CN(C)C)[C@@H](C)CN([C@@H](C)CO)C(=O)c2cc(NC(=O)Cc3ccccc3)ccc2O1 | -0.6
C[C@@H]1CN([C@@H](C)CO)C(=O)c2cccc(NS(=O)(=O)c3ccc(F)cc3)c2O[C@@H]1CN(C)C(=O)Nc1cccc2ccccc12 | 1.5
C[C@@H]1CN([C@@H](C)CO)C(=O)CCCn2cc(nn2)CO[C@@H]1CN(C)C(=O)Nc1ccc2c(c1)OCCO2 | -1.0
C[C@@H]1CN([C@H](C)CO)C(=O)c2cc(NS(=O)(=O)c3ccccc3)ccc2O[C@@H]1CN(C)C(=O)Nc1ccc2c(c1)OCO2 | 2.0
C[C@@H]1CN([C@@H](C)CO)C(=O)c2cc(NS(=O)(=O)c3cn(C)cn3)ccc2O[C@H]1CN(C)Cc1ccc(Cl)c(Cl)c1 | -0.1
C[C@@H]1CN([C@H](C)CO)C(=O)c2cc(NS(=O)(=O)c3ccc(Cl)cc3)ccc2O[C@@H](C)CCCCO[C@@H]1CN(C)C(=O)C1CCCCC1 | -0.1
C[C@H]1CCCCO[C@@H](CN(C)CC2CC2)[C@@H](C)CN([C@@H](C)CO)C(=O)c2cc(NS(=O)(=O)c3ccccc3)ccc2O1 | 1.1
C[C@H](CO)N1C[C@H](C)[C@H](CN(C)C(=O)CCCN(C)C)OCCCC[C@H](C)Oc2ccc(NC(=O)Cc3ccccc3)cc2C1=O | -0.1
Cc1ccc(S(=O)(=O)Nc2ccc3c(c2)CC(=O)N([C@@H](C)CO)C[C@H](C)[C@H](CN(C)Cc2ccncc2)O3)cc1 | -0.6
COc1ccc(NC(=O)Nc2ccc3c(c2)C(=O)N([C@@H](C)CO)C[C@@H](C)[C@H](CN(C)S(=O)(=O)c2ccc(Cl)cc2)O3)cc1 | -0.6
Cc1noc(C)c1S(=O)(=O)Nc1ccc2c(c1)C(=O)N([C@H](C)CO)C[C@@H](C)[C@@H](CN(C)Cc1ccc(C(=O)O)cc1)OCCCC[C@@H](C)O2 | -0.7
C[C@H]1CN([C@@H](C)CO)C(=O)c2cccc(NS(=O)(=O)c3ccccc3)c2O[C@H]1CN(C)C(=O)Nc1ccc(C(F)(F)F)cc1 | 1.0
C[C@@H]1CN([C@H](C)CO)C(=O)CCCn2nncc2CO[C@@H]1CN(C)C(=O)Nc1ccc2c(c1)OCCO2 | -0.5
C[C@H]1CCCCO[C@H](CN(C)S(=O)(=O)c2ccc(Cl)cc2)[C@@H](C)CN([C@@H](C)CO)C(=O)c2cc(NC(=O)CCCN(C)C)ccc2O1 | -1.4
Cc1noc(C)c1NC(=O)N(C)C[C@@H]1Oc2ccc(NC(=O)C3CC3)cc2C(=O)N([C@H](C)CO)C[C@H]1C | -0.3
Cc1noc(C)c1NC(=O)Nc1cccc2c1O[C@@H](CN(C)C(=O)Nc1cccc3ccccc13)[C@H](C)CN([C@H](C)CO)C2=O | 1.0
CC(C)NC(=O)Nc1ccc2c(c1)C(=O)N([C@@H](C)CO)C[C@@H](C)[C@H](CN(C)S(=O)(=O)c1ccc(F)cc1)OCCCC[C@@H](C)O2 | 0.5
Cc1ccc(S(=O)(=O)N(C)C[C@H]2Oc3ccc(NC(=O)Cc4cn(C)c5ccccc45)cc3CC(=O)N([C@H](C)CO)C[C@H]2C)cc1 | 0.5
CC(C)NC(=O)Nc1ccc2c(c1)C(=O)N([C@@H](C)CO)C[C@@H](C)[C@H](CN(C)Cc1ccc(C(=O)O)cc1)OCCCC[C@H](C)O2 | -0.9
COc1ccc(S(=O)(=O)N(C)C[C@@H]2Oc3ccc(NC(=O)CCCCCC(=O)Nc4ccccc4N)cc3C(=O)N([C@@H](C)CO)C[C@@H]2C)cc1 | -0.9
C[C@H](CO)N1C[C@H](C)[C@H](CN(C)C(=O)Nc2ccccc2)OCCCC[C@H](C)Oc2ccc(NC(=O)Nc3ccc4c(c3)OCO4)cc2C1=O | 0.7
COc1ccc(S(=O)(=O)Nc2cccc3c2O[C@H](CN(C)Cc2ccncc2)[C@@H](C)CN([C@@H](C)CO)C3=O)cc1 | 1.5
CC(C)NC(=O)Nc1cccc2c1O[C@H](CN(C)Cc1ccncc1)[C@H](C)CN([C@@H](C)CO)C2=O | -0.2
COc1ccc(S(=O)(=O)Nc2ccc3c(c2)CC(=O)N([C@@H](C)CO)C[C@@H](C)[C@H](CN(C)Cc2ccccc2)O3)cc1 | -0.5
COc1ccccc1S(=O)(=O)N(C)C[C@H]1OCc2cnnn2CCCC(=O)N([C@H](C)CO)C[C@@H]1C | -1.5
C[C@@H]1CN([C@@H](C)CO)C(=O)c2cccc(NC(=O)Nc3ccc(C(F)(F)F)cc3)c2O[C@@H]1CN(C)S(=O)(=O)c1cn(C)cn1 | 1.9
Cc1ccc(S(=O)(=O)N(C)C[C@H]2OCCCC[C@H](C)Oc3ccc(NC(=O)NC4CCCCC4)cc3C(=O)N([C@@H](C)CO)C[C@@H]2C)cc1 | 0.0
C[C@H](CO)N1C[C@H](C)[C@H](CN(C)S(=O)(=O)c2cn(C)cn2)Oc2c(NC(=O)C3CCCCC3)cccc2C1=O | 0.2
C[C@@H]1CN([C@@H](C)CO)C(=O)c2cc(NC(=O)Nc3ccccc3)ccc2O[C@H]1CN(C)C(=O)Nc1ccccc1 | 0.7
COc1ccc(NC(=O)Nc2ccc3c(c2)C(=O)N([C@H](C)CO)C[C@H](C)[C@@H](CN(C)CC2CCCCC2)O3)cc1 | -0.6
C[C@@H]1CN([C@@H](C)CO)C(=O)c2cc(NS(=O)(=O)c3ccc(Cl)cc3)ccc2O[C@@H]1CN(C)S(=O)(=O)c1cn(C)cn1 | -0.2
C[C@@H]1CCCCO[C@@H](CN(C)S(=O)(=O)c2ccccc2)[C@@H](C)CN([C@@H](C)CO)C(=O)c2cc(NS(=O)(=O)c3cn(C)cn3)ccc2O1 | -0.3
C[C@@H]1CCCCO[C@H](CN(C)C(=O)CCCN(C)C)[C@H](C)CN([C@H](C)CO)C(=O)c2cc(NS(C)(=O)=O)ccc2O1 | -0.1
COC(=O)CCCCCCC(=O)N/N=C/c1ccc2c(c1)Cc1ccccc1-2 | -0.3
C[C@@H]1CCCCO[C@@H](CN(C)S(=O)(=O)c2ccc(F)cc2)[C@H](C)CN([C@H](C)CO)C(=O)c2cc(NC(=O)Nc3ccc(C(F)(F)F)cc3)ccc2O1 | 1.5
CC(C)NC(=O)N(C)C[C@@H]1OCCCC[C@H](C)Oc2ccc(NS(=O)(=O)c3ccc(F)cc3)cc2C(=O)N([C@@H](C)CO)C[C@@H]1C | -0.3
COc1ccc(NC(=O)N(C)C[C@@H]2Oc3ccc(NS(C)(=O)=O)cc3CC(=O)N([C@@H](C)CO)C[C@@H]2C)cc1 | -0.6
C[C@@H]1CN([C@H](C)CO)C(=O)c2cccc(NC(=O)Nc3ccc(F)cc3)c2O[C@@H]1CN(C)Cc1ccc(C(=O)O)cc1 | 0.5
C[C@H](CO)N1C[C@H](C)[C@H](CN(C)Cc2ccc(C(=O)Nc3ccccc3N)cc2)Oc2ccc(NC(=O)Nc3ccc4c(c3)OCO4)cc2C1=O | -0.1
COc1ccc(CN(C)C[C@H]2OCCCC[C@@H](C)Oc3ccc(NS(=O)(=O)c4c(C)noc4C)cc3C(=O)N([C@H](C)CO)C[C@H]2C)cc1 | -1.3
C[C@H]1CN([C@@H](C)CO)C(=O)Cc2cc(NC(=O)Nc3ccccc3)ccc2O[C@H]1CN(C)C(=O)Nc1ccc2c(c1)OCO2 | 0.2
C=CCOC(=O)C1=C[C@H](c2ccc(C(F)(F)F)cc2)[C@@H](CCCO)[C@H](OCC)O1 | 0.6
C[C@H](CO)N1C[C@H](C)[C@H](CN(C)S(=O)(=O)c2ccc(F)cc2)Oc2ccc(NC(=O)Nc3ccc(F)cc3)cc2CC1=O | -0.7
O=C(C1=C[C@H](C2CCCCC2)C[C@H](OCc2ccc(CO)cc2)O1)N1CCOCC1 | 0.4
COc1ccc(S(=O)(=O)N(C)C[C@H]2Oc3ccc(NC(=O)CCC(F)(F)F)cc3C(=O)N([C@@H](C)CO)C[C@H]2C)cc1 | -0.9
Cc1noc(C)c1NC(=O)N(C)C[C@@H]1OCCCC[C@@H](C)Oc2ccc(NS(C)(=O)=O)cc2C(=O)N([C@H](C)CO)C[C@H]1C | -0.2
C[C@@H]1CN([C@H](C)CO)C(=O)Cc2cc(NC(=O)Cc3cn(C)c4ccccc34)ccc2O[C@@H]1CN(C)S(=O)(=O)c1ccccc1 | -0.8
C[C@@H]1CN([C@@H](C)CO)C(=O)Cc2cc(NC(=O)CCCN(C)C)ccc2O[C@@H]1CN(C)C | 0.2
New compounds follow.
SMILES | A1 apoptosis 2
CC(C)NC(=O)Nc1ccc2c(c1)CC(=O)N([C@@H](C)CO)C[C@H](C)[C@@H](CN(C)C)O2 | 1.1
Cc1noc(C)c1S(=O)(=O)N(C)C[C@H]1Oc2ccc(NS(=O)(=O)c3ccccc3)cc2CC(=O)N([C@@H](C)CO)C[C@@H]1C | 0.8
Cc1noc(C)c1S(=O)(=O)N(C)C[C@H]1Oc2ccc(NS(=O)(=O)c3cccs3)cc2CC(=O)N([C@H](C)CO)C[C@@H]1C | -0.2
C[C@@H]1CN([C@@H](C)CO)C(=O)c2cc(NS(=O)(=O)c3ccccc3)ccc2O[C@H]1CN(C)Cc1ccc(C(=O)Nc2ccccc2N)cc1 | 2.4
Cc1ccc(S(=O)(=O)Nc2ccc3c(c2)C(=O)N([C@H](C)CO)C[C@H](C)[C@H](CN(C)C(=O)Nc2ccccc2)O3)cc1 | -0.7
C[C@H](CO)N1C[C@H](C)[C@H](CN(C)C(=O)Nc2ccc3c(c2)OCO3)Oc2ccc(NC(=O)CCN3CCOCC3)cc2CC1=O | -1.6
C[C@@H]1CN([C@H](C)CO)C(=O)c2cc(NC(=O)Cc3ccccc3)ccc2O[C@@H](C)CCCCO[C@@H]1CN(C)S(=O)(=O)c1ccc(F)cc1 | -1.6
CC(C)=CCC[C@H](C)C/C=N/NC(=O)c1ccccn1 | 1.6
C[C@@H]1CN([C@@H](C)CO)C(=O)c2cccc(NS(=O)(=O)c3cn(C)cn3)c2O[C@H]1CN(C)Cc1ccc(C(=O)Nc2ccccc2N)cc1 | 1.1
CC(C)NC(=O)Nc1cccc2c1O[C@H](CN(C)C(=O)Nc1cccc3ccccc13)[C@H](C)CN([C@H](C)CO)C2=O | 0.2

Gathered by group, those above containing two or more sulfur atoms
SMILES | A1 apoptosis 2
C[C@@H]1CN([C@H](C)CO)C(=O)c2cc(NS(=O)(=O)c3cccs3)ccc2O[C@@H]1CN(C)S(C)(=O)=O | 0.2
COc1ccc(S(=O)(=O)N(C)C[C@@H]2Oc3c(NS(=O)(=O)c4ccc(C)cc4)cccc3C(=O)N([C@@H](C)CO)C[C@H]2C)cc1 | 0.1
C[C@H]1CN([C@@H](C)CO)C(=O)c2cccc(NS(=O)(=O)c3cccs3)c2O[C@H]1CN(C)Cc1ccc(-c2ccccc2)cc1 | -0.1
C[C@@H]1CN([C@@H](C)CO)C(=O)c2cc(NS(=O)(=O)c3ccc(Cl)cc3)ccc2O[C@@H]1CN(C)S(=O)(=O)c1cn(C)cn1 | -0.2
C[C@@H]1CCCCO[C@@H](CN(C)S(=O)(=O)c2ccccc2)[C@@H](C)CN([C@@H](C)CO)C(=O)c2cc(NS(=O)(=O)c3cn(C)cn3)ccc2O1 | -0.3
Cc1noc(C)c1S(=O)(=O)N(C)C[C@H]1Oc2ccc(NS(=O)(=O)c3ccccc3)cc2CC(=O)N([C@@H](C)CO)C[C@@H]1C | 0.8
Cc1noc(C)c1S(=O)(=O)N(C)C[C@H]1Oc2ccc(NS(=O)(=O)c3cccs3)cc2CC(=O)N([C@H](C)CO)C[C@@H]1C | -0.2
